Source: PubChem
Rce1 inh: inhibitors of yeast Ras-converting enzyme. AID 2563. 0.27% of 290,000 active. yeast membranes, quenched prenylated peptide cleavage fluorescence. calls only;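 active = fall in fluorescence gain of 50% or more versus controls, with final raw signal at or below 3038400; inconclusive = same 50% fall but final raw signal above 3038400; inactive = fall in fluorescence gain under 50%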;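 also: plate controls were neutral control wells for no effect and wells lacking membranes for full effect; tested at 10 µM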
UUG fidelity: modulators of start codon recognition fidelity in yeast; S. cerevisiae UUG-firefly luciferase reporter, luminescence/redox ratio; activity score, % at 18.7 µM; 0.13% of 350,000 active; AID 602363;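 active = replicate mean at a twofold rise or more, about +100% in these data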;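 also: firefly luciferase made from a UUG start codon reports start codon fidelity; reporter light over untreated wells divided by growth signal over untreated wells; some hits fall short of that in this replicate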
HIV Env fusion: inhibitors of HIV Env-mediated cell fusion; 1.1% of 360,000 active; inhibition, % at 12.3 µM; HeLa-JRFL Env/CEM21 cell fusion, luciferase;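 active = mean replicate inhibition score of at least 50 and every replicate individually at or above 50; inconclusive = only one of the two criteria met; inactive = mean below 50 and not all replicates reaching 50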;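 also: 0% = plate neutral controls and 100% = maraviroc near 300 nM; one replicate is shown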
eIF4H inh: inhibitors of RNA binding by human eIF4H. Q15056. eIF4H fluorescence polarization binding assay. inhibition, % at 35 µM. 0.94% of 290,000 active;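 active = 50% or more with normal probe brightness, or confirmed in later tests; inconclusive = above 50% with abnormal brightness, or retests that disagree; inactive = below 50% or failed in later tests; about a fifth of its hits are not listed in these tables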;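 also: calls also rest on retests at 20 µM and on dose response follow-up; 0% = protein and probe with vehicle and 100% = probe without protein; strong numbers were not always called active; many hits fall short of the cut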
MT1-MMP act inh: blocks activation of human MT1-MMP. P50281. HT1080 RFP-PRO-GFP cells, GFP/RFP ratio fluorescence, overnight; percent of plate control window, DMSO zero. GFP/RFP ratio change, % at 20 µM. 0.061% of 360,000 active. AID 651647;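 active = GFP/RFP ratio change of at least 30% with cell ATP level not reduced by more than half and red fluorescence within 50% of control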; also: strong numbers were not always called active
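Assay system: RFP-PRO-GFP reporter HT1080 cells; read-out basis: GFP/RFP fluorescence ratio; benchmarks: DMSO wells and RFP-L50D-GFP cells; doses: 20 µM single dose, 1% DMSO; schedule: overnight cell settling, then overnight compound exposure, 37 °C, 5% CO2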
CSC inhib: blocks cancer stem cells | 1.1% of 300,000 active | cancer stem cell-like cells viability, luminescence | AID 2717 | inhibition, % at 7.5 µM;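 active = mean at 75% or more and at least half the replicates too; inconclusive = mean and replicates disagree; tested in HMLE shEcad cells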;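 also: 0% = median of negative and 100% = median of positive control wells; the first replicate is given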
PABP polyA inh: blocks human PABP binding to poly(A) RNA. fluorescence polarization. inhibition, % at 35 µM. 1% of 290,000 active. AID 2014;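 active = 50% or more with normal probe brightness, or confirmed in later tests; inconclusive = above 50% with abnormal brightness, or retests that disagree; inactive = below 50% or failed in later tests; about a fifth of its hits are not listed in these tables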;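 also: calls also rest on retests at 20 µM and on dose response follow-up; controls were probe without protein and protein plus probe with vehicle; some compounds called inactive have numbers as strong as hits; many hits fall short of the cut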
Target sequence (P11940 whole entry, looked up): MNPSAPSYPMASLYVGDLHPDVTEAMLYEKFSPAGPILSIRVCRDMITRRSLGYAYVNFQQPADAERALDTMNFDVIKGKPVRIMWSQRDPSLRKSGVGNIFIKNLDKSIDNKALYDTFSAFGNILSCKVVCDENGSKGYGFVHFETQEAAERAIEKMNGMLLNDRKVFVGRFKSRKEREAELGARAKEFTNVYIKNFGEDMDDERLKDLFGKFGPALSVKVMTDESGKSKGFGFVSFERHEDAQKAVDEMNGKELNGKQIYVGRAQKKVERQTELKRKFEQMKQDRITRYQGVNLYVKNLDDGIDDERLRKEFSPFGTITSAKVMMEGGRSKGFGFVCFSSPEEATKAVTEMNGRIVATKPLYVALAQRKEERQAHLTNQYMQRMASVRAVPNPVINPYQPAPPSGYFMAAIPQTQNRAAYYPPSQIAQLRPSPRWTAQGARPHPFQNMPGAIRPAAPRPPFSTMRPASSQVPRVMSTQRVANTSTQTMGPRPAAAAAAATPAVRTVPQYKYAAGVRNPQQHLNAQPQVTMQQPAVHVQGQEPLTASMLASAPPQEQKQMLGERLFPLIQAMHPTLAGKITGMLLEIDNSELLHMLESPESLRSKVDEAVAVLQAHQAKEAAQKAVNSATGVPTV
eIF4H inh retest: recorded beside eIF4H inh, whose call it bears; inhibition, %; compound at 20 µM; confirmation average;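 mean of two retest wells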
PABP polyA inh retest: second read-out of PABP polyA inh, no call of its own (marks repeat the call); inhibition, %; compound at 20 µM; confirmation repeats;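 mean of two retest wells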
MT1-MMP act inh RFP: recorded beside MT1-MMP act inh, whose call it bears; RFP signal change, %; measured here: RFP expression control read;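 0 = vehicle wells; hits needed this value within 50% of zero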
The depositor's hits bear a star; i = inactive; ? = inconclusive; . = no result given; + = active, no number; [ ] = dose if it differs, or a comment. The list is partial; rates above refer to the full screens.

SMILES	Rce1 inh	UUG fidelity	HIV Env fusion	eIF4H inh	MT1-MMP act inh	MT1-MMP act inh RFP	CSC inhib	PABP polyA inh	others
CCOc1ccc(CNC(=O)CCCn2ccc3cc(S(=O)(=O)N4CCCC4)ccc32)cc1	i	-6	0	-9	0	-11	-3	-8
CC(SCC(=O)Nc1ccccc1Br)c1nc2ccccc2c(=O)[nH]1 (stereo not given)	.	-18	34	.	-6	-1	-8	.
CCOC(=O)Cc1csc(NC(=O)CC(C)(C)CC(=O)O)n1	i	-4	3	-6	-3	2	3	3
C=CCOc1nc2c(c(=O)n(Cc3ccc(Cl)c(Cl)c3)c(=O)n2C)n1C	i	.	.	.	2	-4	0	.
Cc1ccc(/C=C/C(=O)Nc2cccc(S(=O)(=O)N3CCOCC3)c2)o1	i	.	.	25	-5	-1	-12	-7
O=C(Nc1cccc(-c2nc3cccnc3s2)c1)c1ccco1	i	-15	.	12	3	-1	16	4
CCOC(=O)CN1C(=O)N[C@@H](CCc2ccccc2)[C@H](C(=O)OC)[C@H]1C	i	3	-5	.	-6	1	7	.
CCC(C)NC(=O)Cn1nc([N+](=O)[O-])c(Cl)c1C (stereo not given)	.	.	.	-8	2	5	-5	8
CCCCc1ccc(/C=C2\C(=O)c3ccccc3C(O)=C2C(=O)OCC)cc1	i	.	.	0	.	.	3	8
CC(C)NCc1c(O)c(Br)cc2oc3c(c12)CCCC3	.	-12	.	29	-9	4	.	-7
O=c1cc(-c2ccccc2)nc(Cc2c(Cl)cccc2Cl)[nH]1	i	-5	-1	5	4	4	.	11
COc1cccc(NC(=O)CSc2nnc3c(n2)[nH]c2ccc(C)cc23)c1	i	-13	-10	-7	1	1	.	-14

Pulled by compound from the entries so far (three):
SMILES	Rce1 inh	UUG fidelity	HIV Env fusion	eIF4H inh	MT1-MMP act inh	MT1-MMP act inh RFP	CSC inhib	PABP polyA inh	others
Cc1ccc(/C=C/C(=O)Nc2cccc(S(=O)(=O)N3CCOCC3)c2)o1	i	.	.	25	-5	-1	-12	-7
CC(C)NCc1c(O)c(Br)cc2oc3c(c12)CCCC3	.	-12	.	29	-9	4	.	-7
O=c1cc(-c2ccccc2)nc(Cc2c(Cl)cccc2Cl)[nH]1	i	-5	-1	5	4	4	.	11

Next results.
SMILES	Rce1 inh	UUG fidelity	HIV Env fusion	eIF4H inh	MT1-MMP act inh	MT1-MMP act inh RFP	CSC inhib	PABP polyA inh	others
Cc1cccc(NC(=O)CSc2nnc(NC(=O)CN3CCOCC3)s2)c1	i	-12	.	3	4	-4	0	-5
Cc1cc(NCCCn2ccnc2)n2ncc(-c3ccc(Cl)cc3)c2n1	i	-30	-88	0	-15	-21	42	2
O=C(N[C@H]1CC[C@H](CCNS(=O)(=O)c2ccc(Cl)cc2)O[C@@H]1CO)c1cccc(F)c1	.	-2	1[16.7 µM]	.	4	-2	.	.
COC(=O)Nc1nnc(-c2ccncc2)s1	+	-8	-19	-8	-6	2	-3	11
O=C(Nc1ccc(Cl)c(S(=O)(=O)N2CCOCC2)c1)c1ccccc1-c1ccc(C(F)(F)F)cc1	i	-6	21	3	10	-12	42	12
C(#CC1CCCCC1)c1ccc2c(c1)COc1c3ccccc3nn1-2	i	-26	-51	10	1	-4	36	10
CC(=O)Nc1cc(C)c(S(C)(=O)=O)c(C)c1	i	.	.	0	0	2	-5	2
NS(=O)(=O)c1ccc(N/C=C\C(=O)c2ccc3ccccc3c2)cc1	i	-11	-34	6	4	5	-3	-1
Cc1nc(-n2ncc(C#N)c2N)c2c3c(sc2n1)CCC3	i	-9	-242	-12	3	4	-11	2
O=c1ccn([C@@H]2O[C@H](CO)[C@@H](O)[C@H]2O)c(=O)[nH]1	i	-19	7	-1	5	8	12	-4
O=C(N/N=C\c1ccc(Cl)cc1Cl)c1sccc1-n1cccc1	i	-13	.	-3	-1	-2	11	-4
Nc1ncnc2c1ncn2[C@H]1C[C@H](O)[C@@H](CO)O1	.	6	.	-3	9	8	-3	2
COc1ccc(OC)c(CNc2ccc(F)c(Cl)c2)c1	i	.	.	-5	4	2	-4	14
CN(C)c1cccc(/C=C(\C#N)c2ccccc2)c1	i	-17	-424	2	0	-9	66	-7
CCCn1nnnc1SCC(=O)Nc1cccc(NC(=O)c2ccco2)c1	i	-51	-6	-9	3	5	-10	-8
Cc1cccc(N2C(=O)c3cccc4c(N)ccc(c34)C2=O)c1	i	-36	7	?	-167	-4	1	?
CCCCN(CCCC)c1cn[nH]c(=O)c1Cl	i	-22	-197	7	-1	-2	-1	-5
CCCCCC1CC(CC(C)C(=O)Nc2nncs2)C(=O)O1 (stereo not given)	i	-7	4	-2	2	-2	2	8
CCn1ccnc1CN(C)Cc1c(C(=O)N2CCCCCCC2)nc2ccc(Cl)cn12	.	-10	.	-2	-6	-3	-3	-2
Cc1ccc(NC(=O)/C(=C\c2ccc([N+](=O)[O-])cc2)NC(=O)c2ccccc2)cc1	i	-9	-12	-10	1	-1	-14	-6
CCOn1c(=O)c(-c2ccc(Br)cc2)[n+]([O-])c2ccccc21	i	-12	2	-9	-2	0	-15	0
COc1cccc(-c2ccc(NC(=O)C3CCCN(Cc4ccc(CO)o4)C3)cc2)c1 (stereo not given)	i	-6	0	-3	-2	-2	-7	-11
Cc1nnc(NC(=O)CSc2n[nH]c(-c3ccccc3C)n2)s1	.	-16	1	1	-2	1	-12	8
Cc1cc(C)c(NC(=O)CSc2nnc(CNC(=O)c3ccco3)o2)c(C)c1	i	-16	7	1	-3	2	-3	12

Compounds above containing an aryl methoxy group, in the order listed:
SMILES	Rce1 inh	UUG fidelity	HIV Env fusion	eIF4H inh	MT1-MMP act inh	MT1-MMP act inh RFP	CSC inhib	PABP polyA inh	others
COc1cccc(NC(=O)CSc2nnc3c(n2)[nH]c2ccc(C)cc23)c1	i	-13	-10	-7	1	1	.	-14
COc1ccc(OC)c(CNc2ccc(F)c(Cl)c2)c1	i	.	.	-5	4	2	-4	14
COc1cccc(-c2ccc(NC(=O)C3CCCN(Cc4ccc(CO)o4)C3)cc2)c1 (stereo not given)	i	-6	0	-3	-2	-2	-7	-11

Next part:
SMILES	Rce1 inh	UUG fidelity	HIV Env fusion	eIF4H inh	MT1-MMP act inh	MT1-MMP act inh RFP	CSC inhib	PABP polyA inh	others
COc1ccccc1Oc1coc2c(CN3CCOCC3)c(O)ccc2c1=O	i	.	-9	0	-2	1	-7	-4
CCOC(=O)c1c(C)[nH]c(C(=O)O)c1C	i	-14	.	-2	15	15	-8	-3
O=C(CC1CC2CCC1C2)NCc1cccs1 (stereo not given)	i	24	-76	-2	-2	4	-13	-8
Cc1cc(C(=O)CCC(=O)N(C)CC(=O)Nc2c(Cl)cccc2Cl)c(C)s1	i	-13	0	.	0	2	-14	.
O=C(CSc1nnc(-c2ccco2)c(-c2ccco2)n1)Nc1ccccc1	i	-8	.	96*	-9	5	-8	91*
CC(=O)NC(C)C(c1cccs1)N1CCN(c2ccccc2)CC1 (stereo not given)	i	.	-45	-8	4	3	-6	-10
CCOc1ccc(-c2c(C(=O)N/N=C/c3ccc(O)cc3)nnn2-c2nonc2N)cc1	i	-18	4	-14	2	2	3	-1
CCC(C)NC(=O)c1csc2c1CCCCC2 (stereo not given)	i	-10	-23	-2	5	2	-12	-2
O=C(c1c(Cl)nc2sccn12)N1CCN(c2cccc(Cl)c2)CC1	i	-4	.	-6	7	-11	-9	-3
O=C(Nc1ccc(S(=O)(=O)N2CCN(c3ccccc3)CC2)cc1)c1cccs1	i	.	.	3	4	-2	18	0
CCOC(=O)c1cc(NC(=O)Nc2nc3ccccc3s2)c(C)nc1C	i	0	-13	5	0	1	-8	-7
Cc1ccc(Cn2nnc3c(=O)[nH]c(C4CCN(S(=O)(=O)c5ccc(F)cc5)CC4)nc32)cc1	i	.	8	5	7	-1	41	5
CC(C)C[C@H](NC(=O)c1[nH]cnc1C(=O)N[C@@H](Cc1ccccc1)C(=O)OCc1ccccc1)C(=O)OCc1ccccc1	i	-5	-15	4	2	0	-1	-1
O=C(CCC(=O)Nc1nnc(C2CCCCC2)s1)Nc1ccccc1	i	-10	1	-10	-3	0	-13	3
CC12CCC(=O)CC1CCC1C2CCC2(C)C1CCC2(O)C(=O)CO (stereo not given)	.	4	12	.	-2	-2	.	.
COc1ccc(Cl)cc1NC(=O)CN(C)C(=O)c1cn(-c2ccccc2)nc1-c1cccnc1	i	.	-7	.	3	1	-8	.
COC(=O)[C@@H]1C[C@@H]2CC[C@@H](O)C[C@@H]2N1Cc1ccc(Cl)cc1	i	-17	-34	79	-4	1	-7	37	eIF4H inh retest=13;PABP polyA inh retest=42
O=C(NCCCCNC(=O)c1ccccc1F)c1ccccc1F	i	-4	20	0	-7	-3	-15	9
CSCCC(NC(=O)c1ccccc1Cl)C(=O)NCCc1ccccn1 (stereo not given)	.	-6	.	.	0	3	-6	.
CNC(=S)Nc1cccc(S(=O)(=O)NCc2ccco2)c1	.	-25	-16	.	6	-2	9	.
CCOC(=O)CNC(=O)N1CCc2ccc(NC(=O)c3ccccc3Cl)cc2C1	i	-23	4	5	2	0	58	16
CCN(CC(=O)Nc1c(F)cccc1F)C(=O)c1ccccc1F	i	-14	-49	-1	3	7	0	11
O=S(=O)(c1ccccc1)N1CCN(Cc2cc3c(cc2Br)OCCO3)CC1	.	-12	18	.	1	0	0	.
CCN(CC)CCN1C(=O)C(=O)/C(=C(/O)c2c(C)[nH]c(C(=O)OC)c2C)C1c1ccccc1OC (stereo not given)	i	20	.	-6	-3	-2	9	3

Part of the list above in order of count of non-hydrogen atoms, low to high.
SMILES	Rce1 inh	UUG fidelity	HIV Env fusion	eIF4H inh	MT1-MMP act inh	MT1-MMP act inh RFP	CSC inhib	PABP polyA inh	others
COC(=O)[C@@H]1C[C@@H]2CC[C@@H](O)C[C@@H]2N1Cc1ccc(Cl)cc1	i	-17	-34	79	-4	1	-7	37	eIF4H inh retest=13;PABP polyA inh retest=42
O=C(CCC(=O)Nc1nnc(C2CCCCC2)s1)Nc1ccccc1	i	-10	1	-10	-3	0	-13	3
COc1ccc(Cl)cc1NC(=O)CN(C)C(=O)c1cn(-c2ccccc2)nc1-c1cccnc1	i	.	-7	.	3	1	-8	.

New compounds follow:
SMILES	Rce1 inh	UUG fidelity	HIV Env fusion	eIF4H inh	MT1-MMP act inh	MT1-MMP act inh RFP	CSC inhib	PABP polyA inh	others
Cc1ccccc1C(=O)NCCSc1ccccc1	i	-17	.	10	6	3	3	5
O=C(CN1CCN(Cc2ccccc2Cl)CC1)N/N=C/c1ccco1	.	.	10	-8	3	0	-3	1
CSc1nnc2c3c4c(sc3c(=O)n(-c3ccccc3)n12)CC(C)(C)OC4	i	3	12	23	-3	1	0	-3
O=C1CC2C(CC(OC(=O)c3ccc(-c4ccccc4)cc3)C2CO)O1 (stereo not given)	i	19	.	-4	6	-2	-4	-8
COc1ccc([N+](=O)[O-])cc1NC(=O)CC1SC(=Nc2cccc(C)c2C)N(/N=C(\C)c2ccc(C)cc2)C1=O (stereo not given)	i	0	5	3	4	0	4	-7
O=C1CC2(CCN(C(=O)c3cccc(F)c3)CC2)Oc2ccccc21	i	-18	.	.	-2	-1	-8	.
Cc1ccc(S(=O)(=O)N(C)C)cc1NC(=O)CSc1nc2ccccc2[nH]1	i	.	6	-1	1	-3	-2	-16
COc1ccccc1NC(=O)COc1ccc(C(=O)OCC(=O)N(C(C)C)C(C)C)cc1OC	i	-2	-8	2	3	2	-9	0
Cc1ccc(N(Cc2ccccc2)C(=O)CSC(C)C(=O)Nc2cc(C)on2)cc1 (stereo not given)	.	1	17	.	1	0	.	.
